Screens deposited in PubChem by several laboratories.
Beta2AR agonist: beta2AR agonists driving receptor internalization, primary screen, cell-based, FAP fluorogen, flow cytometry | Beta-2 adrenergic receptor (Homo sapiens), P07550 | Am2.2-beta2AR cells; reference of the scale not given here | response, % (concentration not given with the values) | actives 0.43% (n = 340,000) | AID 504454, 2011;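 active = response above a set limit, near 3 SD of response in nonfluorescent compounds, cut at about 42% in these data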;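 note: stock transfer was 100 nL into about 11 µL; a reference agonist was the positive control; negative values mostly stem from fluorescent compounds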
Target sequence (P07550 whole entry, looked up): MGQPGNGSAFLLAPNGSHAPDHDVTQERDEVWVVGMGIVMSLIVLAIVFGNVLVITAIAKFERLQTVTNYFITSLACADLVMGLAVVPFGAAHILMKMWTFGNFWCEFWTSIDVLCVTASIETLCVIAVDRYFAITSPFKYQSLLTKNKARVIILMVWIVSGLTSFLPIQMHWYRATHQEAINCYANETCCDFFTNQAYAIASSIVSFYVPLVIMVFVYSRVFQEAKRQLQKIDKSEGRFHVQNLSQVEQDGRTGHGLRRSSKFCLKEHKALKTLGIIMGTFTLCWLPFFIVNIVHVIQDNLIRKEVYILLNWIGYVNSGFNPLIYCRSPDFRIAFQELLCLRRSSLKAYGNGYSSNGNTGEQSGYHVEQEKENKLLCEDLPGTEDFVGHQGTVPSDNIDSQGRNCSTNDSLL
rRNA inh HTS: reduced GFP signal of wild-type E. coli, primary screen, bacterial rRNA inhibitor project, GFP/RFP fluorescence, OD600, single point. E. coli WT GFP vs humanized-ribosome RFP mutants, 24 h; stronger effect = lower value; DMSO median 0, no signal -100. actives 1.6% (n = 350,000). AID 720706, 2013. GFP signal change (wild-type ribosome), % (concentration not given with the values);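 active = significant combined selectivity score with lowered wild-type GFP, culture density cut under 30%, mutant RFP and density less affected; inactive = any of these conditions unmet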; note: one replicate is shown; some compounds called inactive have numbers as strong as hits
T cruzi inh: inhibitors of intracellular T. cruzi growth, primary screen, luminescence, NIH3T3 host cells | inhibition, % (concentration not given with the values) | actives 1.4% (n = 300,000) | AID 1885, 2009 | T. cruzi beta-gal in NIH3T3, 90 h;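 active = mean inhibition across valid replicates above about 55%, limit read from the data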;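 note: signal also drops with host cell toxicity which is not excluded here; 0% = plate median of DMSO wells and 100% = zero luminescence signal; higher percent means less beta-gal luminescence so fewer parasites; stock transfer was 50 nL into about 50 µL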
Beta cell apopt: inhibitors of cytokine-induced beta cell apoptosis, primary screen, luminescence; protection from apoptosis, % (test concentration not listed); actives 0.8% (n = 300,000); INS-1E cytokine-induced death, ATP luminescence, 48 h; percent of positive-control rescue, neutral wells zero;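 active = all replicates at 75% or more, or half of them and the mean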;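 note: 0% = cytokine-treated negative control wells and 100% = positive control rescue; higher means more ATP so stronger rescue from cytokine killing; wells of about 40 µL received 100 nL stock; the first replicate is given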
Calb FLC: C. albicans growth inhibition with fluconazole, primary screen, CaCi-2 strain, Alamar Blue fluorescence | C. albicans CaCi-2 (fluconazole-resistant clinical isolate) + fluconazole, 48 h | growth inhibition, % (no concentration beside the values) | actives 0.57% (n = 300,000);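 active = most replicates above 75%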;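 note: all wells also contain fluconazole at 8 µg/ml as a sub-toxic cotreatment; 0% = median of DMSO wells and 100% = median of geldanamycin control wells; wells of about 8 µL received 7.5 nL stock; the first replicate is given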
LANA-H2B inh: blockers of LANA interaction with H2A/H2B – biochemical, FP readout, HTS, primary screen; cell-free LANA-H2A/H2B peptide, fluorescence polarization; inhibition, % (concentration not given with the values); actives 0.6% (n = 320,000); Protein LANA1 (Human herpesvirus 8 type P (isolate GK18)), Q9QR71; in the data active = inhibition mostly above about 10%, no sharp cut-off; inactive = mostly below about 6.7%;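 note: stock transfer was 7.5 nL into about 10 µL; 0% = median of vehicle wells and 100% = median of positive control wells; one replicate is shown; the record names a cut of 25% in any replicate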
ALR H2O2 inh: inhibitors of human ALR sulfhydryl oxidase, primary screen, biochemical, H2O2 detection, HRP-luminol luminescence, single point; FAD-linked sulfhydryl oxidase ALR (Homo sapiens), P55789; actives 3.8% (n = 290,000); AID 485317, 2010; purified ALR, DTT oxidation; inhibition, % (no concentration beside the values);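 active = mean and each replicate at 75% or more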;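 note: stock transfer was 7.5 nL into about 7.5 µL; 0% = neutral wells and 100% = wells with inactivated enzyme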
Target sequence (P55789 whole entry, looked up): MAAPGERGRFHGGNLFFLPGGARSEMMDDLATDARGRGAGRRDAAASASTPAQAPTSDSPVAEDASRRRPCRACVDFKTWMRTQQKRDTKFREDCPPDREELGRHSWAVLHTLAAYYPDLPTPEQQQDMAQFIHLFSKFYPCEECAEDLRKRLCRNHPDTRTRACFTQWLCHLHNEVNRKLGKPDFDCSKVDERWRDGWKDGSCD
A1 inh: caspase 3/7 activation in MEF A1-2A-BIM cells, primary screen, A1 inhibitor project, cell-based, luminescence, HTS | AID 2462, 2010 | caspase activation, % (no concentration beside the values) | Caspase-Glo 3/7 luminescence, 3 h; percent of clofoctol response, vehicle zero | actives 0.066% (n = 330,000);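 active = over half of replicate activation scores above 10%, or exactly half above 10 with the replicate mean above 10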;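 note: wells of about 30 µL received 50 nL stock; many hits fall short of the cut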
rRNA inh HTS OD600: second read-out of rRNA inh HTS, no call of its own (marks repeat the call); OD600 change, %; measured here: OD600 growth;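 optical density of the mix in the first replicate; 0 = DMSO median and -100 = no signal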
rRNA inh HTS RFP: second read-out of rRNA inh HTS, no call of its own (marks repeat the call); RFP signal change, %; measured here: RFP humanized mutant strains;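 first replicate; 0 = DMSO median and -100 = no signal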
Numbers without * were called inactive.

CCCCC(=O)Nc1sc2c(c1C(N)=O)CCC2 was read as Beta2AR agonist -19, T cruzi inh 13, Beta cell apopt 1, Calb FLC 5, LANA-H2B inh 2.4, ALR H2O2 inh 7 and A1 inh 0.6.
For COc1cc(/C=C2/C(C)=C(C#N)c3nc(N)c(C#N)c(C)c32)ccc1OCC(=O)O the results were Beta2AR agonist -3, rRNA inh HTS 17, T cruzi inh -26, Beta cell apopt 4, Calb FLC -1, LANA-H2B inh -2.0, ALR H2O2 inh 42, A1 inh -0.2, rRNA inh HTS OD600 14 and rRNA inh HTS RFP 22.
COc1ccc(-c2nc3nc(N)nn3cc2C)cc1F was read as Beta2AR agonist 3, rRNA inh HTS -1, T cruzi inh -12, Beta cell apopt 1, Calb FLC 3, LANA-H2B inh -1.0, ALR H2O2 inh 25, A1 inh 0.1, rRNA inh HTS OD600 3 and rRNA inh HTS RFP -2.1.
O=C(COC(=O)C1CCCCC1)Nc1cccc(Br)c1 was read as Beta2AR agonist 1, rRNA inh HTS 5, Beta cell apopt -7, LANA-H2B inh -0.9, ALR H2O2 inh 0, A1 inh 0.5, rRNA inh HTS OD600 8 and rRNA inh HTS RFP -1.8.
O=C(Nc1ccc(OCc2ccccc2)cc1)c1ccccc1 was read as Beta2AR agonist 9, rRNA inh HTS 14, T cruzi inh 4, Beta cell apopt 3, Calb FLC -22, LANA-H2B inh 2.4, ALR H2O2 inh 6, A1 inh -6.4, rRNA inh HTS OD600 12 and rRNA inh HTS RFP 2.5.
Screening Cc1nc(SCC(=O)c2ccc(F)c(F)c2)[nH]c(=O)c1Oc1ccc(Cl)cc1 returned Beta2AR agonist -1, rRNA inh HTS 2, T cruzi inh -2, Beta cell apopt -1, Calb FLC -5, LANA-H2B inh -5.0, ALR H2O2 inh 4, A1 inh 0.7, rRNA inh HTS OD600 5 and rRNA inh HTS RFP -0.2.
Screening Cc1cc(C(=O)NCc2ccc(S(N)(=O)=O)cc2)c(C)o1 returned Beta2AR agonist 9, T cruzi inh -6, Beta cell apopt -2, Calb FLC 0, LANA-H2B inh 4.1, ALR H2O2 inh 1 and A1 inh 1.2.
For O=S(=O)(Nc1cc(S(=O)(=O)N2CCOCC2)ccc1NCC1CCCO1)c1ccccc1 (stereo not drawn) the results were Beta2AR agonist -28, rRNA inh HTS 12, Beta cell apopt -5, LANA-H2B inh 9.2, ALR H2O2 inh 27, A1 inh 1.9, rRNA inh HTS OD600 9 and rRNA inh HTS RFP 6.6.
Screening Cc1cccc(NC(=S)NCc2ccc3c(c2)cc(C)n3C)c1C returned Beta2AR agonist 1, rRNA inh HTS -11, T cruzi inh 48, Beta cell apopt -6, Calb FLC 0, LANA-H2B inh -0.9, ALR H2O2 inh 0, A1 inh 1.0, rRNA inh HTS OD600 3 and rRNA inh HTS RFP 42.
`COc1ccc(CCc2nnc(N)s2)cc1OC` gave Beta2AR agonist 0, rRNA inh HTS 7, T cruzi inh -10, Beta cell apopt 5, Calb FLC 6, LANA-H2B inh -1.1, ALR H2O2 inh -1, A1 inh -1.9, rRNA inh HTS OD600 10 and rRNA inh HTS RFP -2.3.
`CCOC(=O)/C(C#N)=C1\C(=O)N(Cc2ccccc2)c2ccccc21` gave Beta2AR agonist 13, T cruzi inh -4, Calb FLC -19, LANA-H2B inh -0.6 and A1 inh -0.1.
CC(=O)Nc1ccc2c3c(cccc13)CC2 was read as Beta2AR agonist 3, T cruzi inh -9, Beta cell apopt -1, Calb FLC 17, LANA-H2B inh -0.7 and A1 inh -0.1.
For Cc1cc(NC(=S)Nc2ccccc2)ccc1Br the results were Beta2AR agonist 12, rRNA inh HTS -30, T cruzi inh 14, Beta cell apopt 2, Calb FLC -14, LANA-H2B inh 22*, ALR H2O2 inh -3, A1 inh 0.6, rRNA inh HTS OD600 -34 and rRNA inh HTS RFP -0.7.
Cc1cccc(OCCCC(=O)Nc2ccc(N3CCCCC3)cc2)c1 was read as Beta2AR agonist 3, T cruzi inh 16, Beta cell apopt 6, Calb FLC -8, LANA-H2B inh -1.5, ALR H2O2 inh 1 and A1 inh -0.1.
For Cc1ccc(NC(=O)COC(=O)CCNS(=O)(=O)c2ccc(C)c(C)c2)cc1 the results were Beta2AR agonist 2, T cruzi inh 6, Beta cell apopt -9, Calb FLC -26, LANA-H2B inh 3.5, ALR H2O2 inh -6 and A1 inh -0.2.
`CCCN1CNc2c(c(=O)[nH]c(=S)n2-c2ccccc2Cl)C1` gave Beta2AR agonist 5, rRNA inh HTS 11, Beta cell apopt 1, Calb FLC -8, LANA-H2B inh -0.6, ALR H2O2 inh 3, A1 inh 0.1, rRNA inh HTS OD600 19 and rRNA inh HTS RFP 2.3.
`CCC(C)(C)NC(=O)C(c1ccc(F)cc1)N(Cc1ccccc1)C(=O)c1cnccn1` (stereo not drawn) gave Beta2AR agonist -1, rRNA inh HTS -5, T cruzi inh 16, Calb FLC 4, LANA-H2B inh 2.3, ALR H2O2 inh -2, A1 inh 1.3, rRNA inh HTS OD600 -25 and rRNA inh HTS RFP -1.4.
Screening COc1ccc(CC(=O)Nc2cc(NC(=O)Cc3ccc(OC)c(OC)c3)cc(C(=O)O)c2)cc1OC returned Beta2AR agonist 2, rRNA inh HTS 8, T cruzi inh 4, Beta cell apopt -5, Calb FLC 21, LANA-H2B inh -1.8, ALR H2O2 inh -8, A1 inh 0.4, rRNA inh HTS OD600 8 and rRNA inh HTS RFP 0.4.
`N#CCSc1nnc(-c2ccccc2O)n1Cc1ccccc1` gave Beta2AR agonist -3, rRNA inh HTS -5, T cruzi inh -6, Beta cell apopt 0, Calb FLC 20, LANA-H2B inh -12, ALR H2O2 inh -1, A1 inh -0.8, rRNA inh HTS OD600 -6 and rRNA inh HTS RFP -0.6.
O=C(NNC(=S)Nc1ccc(Cl)cc1Cl)c1ccc(N2CCOCC2)c([N+](=O)[O-])c1 was read as Beta2AR agonist -1, rRNA inh HTS -22, T cruzi inh -5, Beta cell apopt -4, Calb FLC -4, LANA-H2B inh -2.7, ALR H2O2 inh 40, A1 inh -0.2, rRNA inh HTS OD600 -27 and rRNA inh HTS RFP -4.5.
For N/C(=N\OC(=O)Cc1ccccc1)c1cccnc1 the results were Beta2AR agonist 0, T cruzi inh -9, Beta cell apopt -7, Calb FLC 2, LANA-H2B inh -22 and A1 inh 0.5.
O=C1N[C@H](Cc2ccccc2)COC(=O)[C@H](Cc2ccc(F)cc2)C/C=C\C[C@H]1CC(=O)N(CCO)Cc1ccccc1 was read as Beta2AR agonist 1, rRNA inh HTS -1, Beta cell apopt 0, LANA-H2B inh 3.1, ALR H2O2 inh -3, A1 inh 0.3, rRNA inh HTS OD600 -7 and rRNA inh HTS RFP 3.7.
N#Cc1c(NC(=O)c2cc(-n3cnnc3)ccc2Cl)sc2c1CCCC2 was read as Beta2AR agonist -14, T cruzi inh 8, Beta cell apopt 7, Calb FLC -1, LANA-H2B inh -2.0, ALR H2O2 inh 3 and A1 inh 0.3.
For Cn1c(SCc2ccc(Br)cc2)nnc1-c1cccs1 the results were Beta2AR agonist -9, T cruzi inh 14, Beta cell apopt -6, Calb FLC -22, LANA-H2B inh -3.0, ALR H2O2 inh -6 and A1 inh 1.1.
For Cc1cccn2cc(-c3cccc(NC(=O)c4cccs4)c3)nc12 the results were Beta2AR agonist 19, rRNA inh HTS -35, T cruzi inh 2, Beta cell apopt 14, Calb FLC 13, LANA-H2B inh 1.4, ALR H2O2 inh 20, A1 inh -0.9, rRNA inh HTS OD600 -40 and rRNA inh HTS RFP -7.6.
For CS(=O)(=O)N1CCN(C(=S)NCc2ccc(Cl)cc2)CC1 the results were Beta2AR agonist -3, rRNA inh HTS 8, T cruzi inh 9, Beta cell apopt 0, Calb FLC 5, LANA-H2B inh 3.4, ALR H2O2 inh 4, A1 inh 0.5, rRNA inh HTS OD600 11 and rRNA inh HTS RFP -1.7.
Screening CCOc1ccc(S(=O)(=O)NCCC(=O)NCC(c2ccccc2OC)N2CCCC2)cc1 (stereo not drawn) returned Beta2AR agonist 1, rRNA inh HTS 8, T cruzi inh -9, Beta cell apopt -4, Calb FLC 0, LANA-H2B inh -0.6, ALR H2O2 inh -2, A1 inh -2.2, rRNA inh HTS OD600 8 and rRNA inh HTS RFP -1.8.
CCC(=O)N(CC(=O)Nc1sc(C)c(C)c1C(N)=O)C1CCCC1 was read as Beta2AR agonist -1, rRNA inh HTS 6, T cruzi inh -12, Beta cell apopt -6, Calb FLC 12, LANA-H2B inh -1.0, ALR H2O2 inh -3, A1 inh 0.9, rRNA inh HTS OD600 15 and rRNA inh HTS RFP 2.4.
`CCOc1ccc(C(=O)NCC(=O)N2CCc3ccccc3C2)cc1OCC` gave Beta2AR agonist -7, rRNA inh HTS -6, T cruzi inh 1, Beta cell apopt 2, Calb FLC 1, LANA-H2B inh -2.1, ALR H2O2 inh 0, A1 inh -0.6, rRNA inh HTS OD600 0 and rRNA inh HTS RFP -1.4.
`COc1ccc(C(=O)Nn2cc3c(c2-c2ccccc2)c(=O)n(C)c(=O)n3C)cc1` gave Beta2AR agonist 6, rRNA inh HTS 1, T cruzi inh 4, Beta cell apopt -6, Calb FLC 10, LANA-H2B inh 3.7, ALR H2O2 inh 14, A1 inh -0.4, rRNA inh HTS OD600 2 and rRNA inh HTS RFP -0.8.
Screening O=C(CSc1ccccn1)N/N=C/c1c[nH]c2ccccc12 returned Beta2AR agonist 0, rRNA inh HTS -12, T cruzi inh -1, Calb FLC -19, LANA-H2B inh -4.3, ALR H2O2 inh -7, A1 inh 1.7, rRNA inh HTS OD600 0 and rRNA inh HTS RFP 2.3.
Cc1ccc(Cl)cc1N1CCN(C(=O)Cn2ncn3cccc3c2=O)CC1 was read as Beta2AR agonist -7, rRNA inh HTS -8, T cruzi inh 14, Beta cell apopt -5, Calb FLC -6, LANA-H2B inh -1.0, ALR H2O2 inh 1, A1 inh 0.7, rRNA inh HTS OD600 -12 and rRNA inh HTS RFP -7.6.
Screening Cc1cc(NC(=O)c2ccc([N+](=O)[O-])cc2Cl)no1 returned Beta2AR agonist -3, rRNA inh HTS 10, T cruzi inh 2, Beta cell apopt 7, Calb FLC -14, LANA-H2B inh -2.9, A1 inh 1.0, rRNA inh HTS OD600 6 and rRNA inh HTS RFP 0.3.

As a working copy, part of the list above:
For N/C(=N\OC(=O)Cc1ccccc1)c1cccnc1 the results were Beta2AR agonist 0, T cruzi inh -9, Beta cell apopt -7, Calb FLC 2, LANA-H2B inh -22 and A1 inh 0.5.
O=C1N[C@H](Cc2ccccc2)COC(=O)[C@H](Cc2ccc(F)cc2)C/C=C\C[C@H]1CC(=O)N(CCO)Cc1ccccc1 was read as Beta2AR agonist 1, rRNA inh HTS -1, Beta cell apopt 0, LANA-H2B inh 3.1, ALR H2O2 inh -3, A1 inh 0.3, rRNA inh HTS OD600 -7 and rRNA inh HTS RFP 3.7.

This is a subset; count on the stated rates, not on these rows.
